AID504770: growth inhibition of E. coli YBA685, primary screen, V. cholerae RctB inhibitors | z-score (concentration not given with the values) | E. coli YBA685 rctB-dependent plasmid, OD600 growth, 3 h; stronger effect = lower value | actives 0.27% (n = 130,000);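 active = z-score under -2 on both plates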;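 note: wells of about 30 µL received 100 nL stock; score is relative to mean and SD of the test wells; the first replicate is given; strong numbers were not always called active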
Ba CapD inh: Bacillus anthracis CapD inhibitors, primary screen, biochemical, fluorescence intensity; purified CapD enzyme, fluorescence intensity read-out; stronger effect = lower value; some hits fall short of the stated cut; z-score (concentration not given with the values); CapD gamma-glutamyltranspeptidase (Bacillus anthracis Ames Ancestor); actives 0.23% (n = 140,000); AID 492967, 2010;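 active = z-score under -4 in either of two replicates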;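 note: stock transfer was 100 nL into about 40 µL; score is relative to mean and spread of the plate; one replicate is shown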
* marks the source's active call; other numbers are inactive results; / = not tested or not shown. This is a subset. The share of hits here may be higher or lower than overall.

SMILES	AID504770	Ba CapD inh
CO/N=C(/C(=O)NC1C(=O)N2C(C(=O)O)=C(COC(N)=O)CSC12)c1ccco1 (stereo not given)	0.4	-0.6
COC(=O)C1COc2ccccc2O1 (stereo not given)	0.35	-0.71
COC(=O)c1ccc(C2Oc3ccc(OC)cc3C3CC(c4ccc(OC)cc4)=NN32)cc1 (stereo not given)	/	-1.2
CCCCN1CC(O)=C(c2nc(-c3ccc(Cl)cc3)cs2)C1=N	-0.8	/
O=C(CC1C(=O)N(c2ccccc2)C(=S)N1CCc1ccc(F)cc1)Nc1ccc(F)cc1 (stereo not given)	0.6	-0.33
CC(Sc1nnc(N)s1)C(=O)Nc1cccc2ccccc12 (stereo not given)	2.5	/
O=c1[nH]nc(C2c3ccccc3Oc3ccccc32)o1	/	0.42
Cc1ccc(CCNS(=O)(=O)c2cc3c(cc2Cl)NC(=O)CO3)cc1	-0.45	-0.35
CCOc1ccc(N2CCN(C(=O)OCCN(Cc3cc4ccccc4c4ccccc34)C(=O)OC(C)(C)C)CC2)cc1	/	0.65
N#CCCn1cccc1CN1CCOCC1	-0.75	0.97

Full records, looked up by structure:
COC(=O)c1ccc(C2Oc3ccc(OC)cc3C3CC(c4ccc(OC)cc4)=NN32)cc1 (stereo not given) is entered as AID504770: /; Ba CapD inh: -1.2
O=c1[nH]nc(C2c3ccccc3Oc3ccccc32)o1 is entered as AID504770: /; Ba CapD inh: 0.42
N#CCCn1cccc1CN1CCOCC1 is entered as AID504770: -0.75; Ba CapD inh: 0.97

The main list resumes, repeating the 2 entries before the break.
SMILES	AID504770	Ba CapD inh
CCOc1ccc(N2CCN(C(=O)OCCN(Cc3cc4ccccc4c4ccccc34)C(=O)OC(C)(C)C)CC2)cc1	/	0.65
N#CCCn1cccc1CN1CCOCC1	-0.75	0.97
O=C(NNC(=O)c1cccc2ccccc12)OCCc1cccc(Cl)c1	/	1.4
CC(C(=O)N1CCCCC1)n1c2ccccc2c2cnn(C)c(=O)c21 (stereo not given)	-2.1	-0.46
NC(=O)c1c(/N=c2\oc3ccc(Br)cc3cc2C(N)=O)sc2c1CCCC2	/	0.61
CSCc1c(C(=O)NCc2ccc3c(c2)OCO3)oc2ccccc12	1	/
Cc1cc(C)c(C#N)c(SCC(=O)Nc2ccc(Cl)c(Cl)c2)n1	/	5.5
Nc1nnc(-c2cc3cc(Cl)cc(Cl)c3oc2=O)s1	/	0.5
COc1cccc(/C(O)=C/c2nc3ccc(C(F)(F)F)cc3[nH]c2=O)c1	0.05	0.84
CCN1C(=O)CC(C(=O)Nc2ccc(C(=O)OC)cc2)SC1=Nc1ccc2c(c1)OCO2 (stereo not given)	/	-0.27
COc1cc2c(C)nc3onc(-c4ccccc4)c3c2cc1OC	3.2	3.6
COc1cc(-c2nc3ccccc3c(=O)[nH]2)cc(Br)c1O	-0.15	4.2
O=C(Nc1ccc(Cl)cc1)c1csc(-c2cccc(C(F)(F)F)c2)n1	/	0.91
Cc1cc(NS(=O)(=O)c2ccc(NS(=O)(=O)c3cccc(Cl)c3)cc2)no1	/	-1.2
CCOC(=O)N1CCN(S(=O)(=O)c2cc(C(=O)Nc3ccc(Oc4ccccc4)cc3)ccc2F)CC1	/	-0.52
c1ccc(-c2nnsc2-c2ccccc2)cc1	/	0.36
COc1ccc(/C=C2/CN(C)C/C(=C\c3ccc(OC)c(OC)c3)C2=O)cc1OC	0.05	0.01
Cc1[nH]c2cc3c(C(F)(F)F)cc(=O)[nH]c3cc2c1C	-0.1	-0.65
Cc1cc(C)c(C#N)c(Nc2ccc3c(c2)OCCO3)n1	-0.3	2.8
COc1ccc(-n2c(Cn3c(=O)sc4ccccc43)nnc2SCC(=O)N2CCCC2)cc1	2.4	-1.1
O=C1C2CCCCC2C(=O)N1c1ncn[nH]1 (stereo not given)	/	0
Cc1cc(NC(=O)NC(=O)c2c(F)cccc2Cl)no1	/	0.25
CCNC(=O)n1cc(-c2ccncn2)c(-c2ccccc2Cl)n1	/	-0.15
CCn1c(C2CC(=O)N(c3ccccc3)C2)nc2ccccc21 (stereo not given)	1.3	0.045
CC(Sc1nc(N)cc(N)n1)C(=O)c1ccc(Br)cc1 (stereo not given)	2.5	/
Cc1c(C#N)c2nc3ccccc3n2c(=O)/c1=C\Nc1cccc(NC(=O)c2ccccc2)c1	0.45	-0.21
CCOc1ccccc1C(c1c(C)[nH]n(-c2ccccc2)c1=O)c1c(C)[nH]n(-c2ccccc2)c1=O	/	-0.065
Cc1n[nH]c(C)c1NC(=O)c1cc2ccccc2oc1=O	-0.2	/
O=C(CCC(=O)c1cccs1)NC1=NCCS1	-0.85	/
Cc1ccc(NC(=O)CSC2=C(C#N)C(c3cccs3)C3=C(CC(C)(C)CC3=O)N2)c(C)c1 (stereo not given)	/	5
COC(=O)c1ccc(CSc2nnc(SCC(=O)Nc3ccc4c(c3)OC3(CCCCC3)O4)s2)o1	-0.65	/
COc1ccc(OCC(=O)N2N=C(c3ccc(Cl)cc3)CC2c2ccco2)cc1 (stereo not given)	0.5	/
C=CCc1cc(OC)ccc1OCCCSc1ncccn1	-0.4	-0.14
Cc1ccc(S(=O)(=O)NC(=O)c2cc(/C=N/NCCC#N)n(C)c2)cc1	0.55	/
CCCNC(=O)c1cccc(NC(=O)N2CCSc3ncccc32)c1	-0.4	1.9
Cc1nn(-c2ccccc2)c2sc(C#N)c(N)c12	-0.55	-0.025
CN1/C(=C\C=C2\C(=O)Oc3ccccc3C2=O)C(C)(C)c2ccccc21	1.6	-0.17
O=C(Nc1ccc2oc(-c3ccccc3)nc2c1)c1ccc(Br)cc1	-0.25	1.2
COc1ccccc1N1C(=O)C2C3C=CC(C2C1=O)C1C2C(=O)N(c4ccccc4OC)C(=O)C2C31 (stereo not given)	/	0.11
O=C(c1cc(-c2ccc(Cl)cc2)cs1)N1CCOCC1	/	-0.36
Cc1ccc(S(=O)(=O)n2nc(C)cc2C)cc1	1.4	0.055
CCN(CC)S(=O)(=O)c1cc(-c2nnc(-c3ccc(C)cc3)o2)ccc1C	-0.15	6.8
COc1ccc(Br)c(C(=O)Nn2c(-c3ccccc3F)nc3ccccc3c2=O)c1	/	-0.2
CCn1c(=O)/c(=C\c2ccc(Cl)cc2)s/c1=C(/C#N)C(N)=O	-0.15	/
CC1=NN(c2ccccc2)C(=O)/C1=C\c1ccccc1OS(=O)(=O)c1ccccc1[N+](=O)[O-]	/	-0.005
COC(=O)c1ccccc1NC(=O)CSc1nc2c(c(=O)[nH]1)CCCC2	0.5	0.69
COC(=O)C1=C(C)NC(C)=C(C(=O)OC)C1c1ccccc1OCc1c(C)no[n+]1[O-]	0.1	/
CCOC(=O)CC(N)c1cccc(O)c1 (stereo not given)	-0.4	0.21
Cc1ccc(C)n1N(C)c1cccc(F)c1C#N	2.8	1
C/C(=N/OC(=O)CSc1nc(-c2ccco2)cc(C(F)(F)F)n1)c1ccccc1	1.3	/
O=C1CSC2(CCCC2)N1	0.1	1.2
Cc1cc(C)c2cc(C3C(C#N)=C(N)OC4=C3C(=O)CC(C)(C)C4)c(=O)[nH]c2c1 (stereo not given)	1.2	/

Further compounds
SMILES	AID504770	Ba CapD inh
COC(=O)CSc1nnc(COc2ccccc2)o1	/	0.3
CCN(CC)C(=O)Cc1nc(-c2ccc(OC)cc2)no1	-0.45	-0.43
O=C(Nc1ccc(Cl)cc1)OCc1cc(-c2ccc(Cl)cc2)on1	/	-0.62
CCC(=O)N1C(C(=O)O)CSC1c1ccc(OC)cc1 (stereo not given)	0.9	0.41
NC(=O)C1CCCNC1 (stereo not given)	-0.35	/
COc1ccc(C2CC(Cn3cc(C(C)=O)c(=O)[nH]c3=O)ON2C)cc1 (stereo not given)	/	0.91
NC(=O)CSc1nc2sc3c(c2c(=O)n1C1CCCC1)CCCC3	-0.55	/
COc1ccc(Cl)cc1NC(=O)CN(C)C(=O)c1cccnc1SCc1c(C)noc1C	1.3	/
COc1ccc(/C=N/NC(=O)c2ccncc2)cc1CN1CCN(c2ccc(F)cc2)CC1	0.1	0.13
CC(C)(O/N=C(/C(=O)N[C@@H]1C(=O)N2C(C(=O)[O-])=C(C[n+]3ccccc3)CS[C@H]12)c1csc(N)n1)C(=O)O	/	1.5
CCC(=O)NC(Nc1cccnc1Cl)(C(F)(F)F)C(F)(F)F	-0.05	-0.4
Cc1cccc(NC(=O)c2cccc3c2OC(C)(C)C3)c1	0.3	-0.085
Cc1cc2c(nn1)CCc1nonc1-2	/	0.03
O=C(c1cnn(-c2ccccc2)n1)N(CC1CCCO1)C1CCS(=O)(=O)C1 (stereo not given)	-0.3	/
CN(C(=O)c1cc2c(s1)-c1ccc(Cl)cc1SC2)c1cccc(Cl)c1	-0.2	-0.62
O=C(CSc1nnc(-c2ccco2)o1)NC(=O)C1COc2ccccc2O1 (stereo not given)	-0.25	/
O=C(Nc1ccccc1O)c1cccc(S(=O)(=O)N2CCCC2)c1	-0.45	0.015
O=C(NCC1COc2ccccc2O1)c1ccccc1Br (stereo not given)	0.15	-0.32
O=S(=O)(c1ccccc1)c1ccc(C(F)(F)F)cn1	-0.65	/
Cc1csc(C2C(=O)NC(S)=C(C#N)C23CCCCC3)n1 (stereo not given)	-0.1	/

Some of the entries above, reformatted.
The line under a structure holds: AID504770	Ba CapD inh
O=C(NCC1COc2ccccc2O1)c1ccccc1Br (stereo not given)
 : 0.15	-0.32
O=S(=O)(c1ccccc1)c1ccc(C(F)(F)F)cn1
 : -0.65	/
Cc1csc(C2C(=O)NC(S)=C(C#N)C23CCCCC3)n1 (stereo not given)
 : -0.1	/

5 successive compounds from above, quoted:
SMILES	AID504770	Ba CapD inh
O=C(CSc1nnc(-c2ccco2)o1)NC(=O)C1COc2ccccc2O1 (stereo not given)	-0.25	/
O=C(Nc1ccccc1O)c1cccc(S(=O)(=O)N2CCCC2)c1	-0.45	0.015
O=C(NCC1COc2ccccc2O1)c1ccccc1Br (stereo not given)	0.15	-0.32
O=S(=O)(c1ccccc1)c1ccc(C(F)(F)F)cn1	-0.65	/
Cc1csc(C2C(=O)NC(S)=C(C#N)C23CCCCC3)n1 (stereo not given)	-0.1	/

(listing goes on)
SMILES	AID504770	Ba CapD inh
COC(=O)C(Cc1c[nH]c2ccccc12)NS(=O)(=O)c1ccccc1C(F)(F)F (stereo not given)	/	0
CC(C)(C)NC(=O)CSc1nc(O)cc(=O)[nH]1	-0.25	/
Cn1c(=O)c(C(=O)CS(=O)(=O)O)c2c3c(c(Br)ccc31)C(=O)c1ccccc1-2	/	-0.72
COc1cccc(OCCSc2nc3ccccc3c(=O)[nH]2)c1	1.2	0.73
COc1ccc(S(=O)(=O)NCCN2CCOCC2)cc1OC	1.4	0.53
Cc1ccc(C(=O)OC(C)CN2CCCC2)cc1 (stereo not given)	-0.8	-0.24
O=C(CN1CCCCC1)Nc1ccccc1C(=O)NC1CC1	-0.2	/
COC(=O)c1ccccc1NC(=O)c1ccc(N2CC3CC(C2)c2cccc(=O)n2C3)c(NC(=O)c2ccccc2Cl)c1 (stereo not given)	/	0.47
NS(=O)(=O)c1cccc(-n2cnnn2)c1	0.2	/
CCN1C(=O)C2(C(C#N)=C(N)Oc3n[nH]c(-c4ccccc4)c32)c2ccccc21 (stereo not given)	/	0.52
Cc1cc(C)c2c(n1)SCC(=O)N2CC(=O)NC1CCN(Cc2ccccc2)CC1	0.05	-0.4
Cn1cnc([N+](=O)[O-])c1Sc1nnc(-c2ccc(C(C)(C)C)cc2)n1-c1ccc2c(c1)OCO2	/	-0.07
CS(=O)(=O)N1CCSC1c1ccco1 (stereo not given)	-0.5	-0.46
Cc1ccn2c(=O)c(-c3ccccc3)c(O)nc2c1	-0.05	-0.6
CC(NS(C)(=O)=O)C(c1cccs1)N1CCOCC1 (stereo not given)	-0.8	0.43
O=c1ccn(-c2ncc(C(F)(F)F)cc2Cl)c(=O)n1Cc1ccccc1	/	0.31
CCCNC(=O)CN1CCN(c2nc(C)nc3scc(-c4cccs4)c23)CC1	1	/
Cc1cc(Oc2ncccc2[N+](=O)[O-])c2ccccc2n1	/	-0.49
S=C(Nc1ccc2nsnc2c1)N1CCCC1	0.1	0.12
Cn1/c(=N\NC(=O)C23CC4CC(CC(C4)C2)C3)sc2ccccc21	-1.1	0.4
CCC1(C)CC(CCNCc2ccc(F)cc2)(c2ccc(C)cc2)CCO1 (stereo not given)	/	-0.39
O=C(Nc1cccc([N+](=O)[O-])c1)c1ccc(Br)c(S(=O)(=O)Nc2ccc(Cl)cc2)c1	/	-0.15
CCOc1ccc(N2CCN(S(=O)(=O)c3ccc(F)c(F)c3)CC2)cc1	/	0.55
O=S(=O)(c1ccccc1)c1ccsc1	/	-0.08
Cc1cc(OCC(=O)N(C)c2ccccc2)cc(C)c1Cl	-0.35	/
O=S(=O)(c1ccc(Cl)s1)N1CCC(O)C1 (stereo not given)	/	-1.3
CCCn1ncc(OC)c(Cl)c1=O	0.15	0.2
COc1ccc(NC(=O)C(Cc2c[nH]c3ccccc23)NC(C)=O)cc1OC (stereo not given)	1.4	-0.48
CC(=O)OCC(=O)[C@@]1(O)CC[C@H]2C3CCC4=CC(=O)CCC4(C)[C@@]3(F)[C@@H](O)CC21C (stereo not given in full)	/	-0.57
Cc1cc(NC(=O)c2ccc3c(c2)S(=O)(=O)c2ccccc2C3=O)n(-c2ccccn2)n1	-0.55	/
Cc1cccc(C)c1NCc1nnc(SCC#N)n1-c1ccccc1	-0.15	/
Cc1noc(N)c1C(=O)OCc1c(F)cccc1Cl	0.15	/
CC(C)CNC(=O)c1cc(CC(C)C)on1	-1.8	0.28
Fc1cccc(Cl)c1CN1CCN(c2ncnc3scc(-c4ccccc4)c23)CC1	/	0.015
Cn1cccc1CNCCc1ccc(F)cc1	-0.55	-0.14
Cc1cc(C(C)(C)C)cc(C)c1CCN	0.3	/
O=C(CSc1ncnc2sc3c(c12)CCC3)c1ccc(F)cc1	-0.65	0.16
